CtBP-E1A inh – qHTS Assay for Inhibitors of the CtBP/E1A Interaction; CtBP / adenovirus E1A interaction (AlphaScreen); AlphaScreen GST-E1A/His-CtBP binding, 1536-well; stronger effect = lower value; control for the full effect not named in the record; activity change, % (no concentration beside the values); actives 0.49% (n = 340,000); in the data active means activity change below about -65%; inconclusive means about -30% to -65%; inactive means above about -30%; also: % is scaled to controls: 0 for no effect and ±100 for the full control effect; compound concentration not given in the record
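Protein mix (5X: 125 nM each GST-E1A, His-CtBP) was incubated with pinned compound 2 h at 37 deg C in dark, in 50 mM Tris pH 8.0 buffer with 300 mM NaCl. Glutathione donor and nickel acceptor beads followed; AlphaScreen signal read after 1 h.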
TRPV1 potentiator – HTS Assay for Compounds that Act as Potentiators of the Vanilloid Receptor 1 | TRPV1-expressing cells, Fluo-8 calcium influx, capsaicin EC20 potentiation; host cell line not named in the record; control for the full effect not named in the record | actives 0.02% (n = 320,000) | potentiation, % at 8.33 µM | AID 540277, 2011 | Transient receptor potential cation channel subfamily V member 1 (Homo sapiens), Q8NER1; active means potentiation above 80%; inconclusive means 30% to 80%; inactive means below 30%; also: 0% is about no effect
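TRPV1-expressing cells were cultured overnight at 35.5C and loaded with Fluo-8 calcium dye for 40 to 90 min at room temperature. After a 10 s baseline, compound was added and calcium influx was read kinetically for 3 min (ex 480/em 520 nm).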
TRPML1 blocker – qHTS for Inhibitors of the Human Mucolipin Transient Receptor Potential 1 (TRPML1). TRPML1-inducible cells, Ca2+ dye fluorescence, FDSS; stronger effect = lower value; inhibition of EC80 agonist-evoked calcium signal. activity change, negative = inhibition, % (concentration not given with the values). Mucolipin-1 (Homo sapiens), Q9GZU1. actives 0.02% (n = 390,000); in the data active means activity change below about -50%; inconclusive means about -30% to -50%; inactive means above about -30%;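 also: stimulus is agonist 54-4 at its EC80 concentration; % is scaled to controls: 0 for no effect and ±100 for the full control effect; compound concentration not given in the record; the text of the record puts the active cut at -80%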
Target sequence (Q9GZU1 whole entry, looked up): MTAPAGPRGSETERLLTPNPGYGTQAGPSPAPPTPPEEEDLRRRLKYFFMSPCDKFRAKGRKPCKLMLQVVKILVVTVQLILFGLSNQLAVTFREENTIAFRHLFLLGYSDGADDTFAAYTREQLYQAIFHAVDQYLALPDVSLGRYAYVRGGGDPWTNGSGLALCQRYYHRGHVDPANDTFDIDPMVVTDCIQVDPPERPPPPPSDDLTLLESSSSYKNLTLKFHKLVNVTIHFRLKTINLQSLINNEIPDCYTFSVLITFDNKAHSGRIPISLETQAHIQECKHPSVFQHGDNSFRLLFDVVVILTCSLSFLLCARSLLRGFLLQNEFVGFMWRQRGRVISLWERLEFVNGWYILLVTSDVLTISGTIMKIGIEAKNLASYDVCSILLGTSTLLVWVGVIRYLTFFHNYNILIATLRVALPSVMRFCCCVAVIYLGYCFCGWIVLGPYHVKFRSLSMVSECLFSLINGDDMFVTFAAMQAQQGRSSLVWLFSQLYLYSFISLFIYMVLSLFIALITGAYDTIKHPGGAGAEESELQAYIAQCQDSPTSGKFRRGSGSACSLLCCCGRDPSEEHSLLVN
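Tet-induced TRPML1-DL cells loaded with Ca8 no-wash calcium dye were read kinetically on FDSS. Compound addition was followed by EC80 agonist 54-4 (4 uM final); inhibition was read over 110 s.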
D2 PAM – Beta-Arrestin HTS for Positive Allosteric Modulators of the Human D2 Dopamine Receptor: Potentiators; D(2) dopamine receptor (Homo sapiens), P14416; actives 0.23% (n = 360,000); DiscoveRx D2 beta-arrestin cells, luminescence, 90 min; 100% = 57 uM dopamine signal; potentiation, % (test concentration not listed); active = potentiation of 50% or more; inconclusive = 30% to 50%; inactive = 30% or less;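 also: compound concentration not given in the record; tested on top of an EC20 dose of dopamine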
Target sequence (P14416 whole entry, looked up): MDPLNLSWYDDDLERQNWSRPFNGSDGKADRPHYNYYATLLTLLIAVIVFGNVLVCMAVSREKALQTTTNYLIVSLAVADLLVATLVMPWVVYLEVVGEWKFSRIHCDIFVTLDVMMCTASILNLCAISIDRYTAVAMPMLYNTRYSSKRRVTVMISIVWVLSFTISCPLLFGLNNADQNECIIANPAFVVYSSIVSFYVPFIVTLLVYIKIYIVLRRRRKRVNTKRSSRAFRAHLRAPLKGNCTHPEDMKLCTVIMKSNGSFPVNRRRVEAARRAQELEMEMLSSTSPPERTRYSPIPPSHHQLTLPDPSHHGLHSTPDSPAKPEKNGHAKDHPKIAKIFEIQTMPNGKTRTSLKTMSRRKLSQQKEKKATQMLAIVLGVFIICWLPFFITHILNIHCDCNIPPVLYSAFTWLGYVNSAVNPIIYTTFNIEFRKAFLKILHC
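D2 cells co-treated with compound plus 50 nM dopamine (EC20) for 90 min at 37 deg C to detect potentiation. Beta-arrestin recruitment was read as enzyme-fragment luminescence after 1 h at ambient temperature. Full response was set by 57 uM dopamine.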
Six1-Eya2 blk – qHTS Assay for Inhibitors of the Six1/Eya2 Interaction; Homeobox protein SIX1 (Homo sapiens) + Protein phosphatase EYA2 (Homo sapiens), …; AlphaScreen GST-Six1/His-Eya2 binding, biochemical; stronger effect = lower value; control for the full effect not named in the record; activity change, % (concentration not given with the values); actives 0.56% (n = 360,000); AID 651725, 2012; in the data active = activity change below about -65%; inconclusive = about -30% to -65%; inactive = above about -30%; also: % is scaled to controls: 0 for no effect and ±100 for the full control effect
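Compounds are tested against tagged Six1 and Eya2 proteins bridged by glutathione donor and nickel acceptor beads; after a one-hour incubation at 37 °C without light, AlphaScreen emission is recorded.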
TRPML1 agonist – qHTS for Agonists of the Human Mucolipin Transient Receptor Potential 1 (TRPML1) | Mucolipin-1 (Homo sapiens), Q9GZU1 | TRPML1-expressing cells, Ca2+ dye fluorescence, FDSS; host cell line not named in the record; reference of the full effect not given here | activation, % (no concentration beside the values) | actives 0.12% (n = 410,000) | AID 624414, 2012; in the data active = activation above about 50%; inconclusive = about 30% to 50%; inactive = below about 30%; also: 0% is about no effect; the text of the record puts the active cut at 80%
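TRPML1-DL cells, Tet-induced overnight (~16 h, 37 degrees C), loaded 45-90 min at room temperature with Ca8 no-wash calcium dye plus quencher. FDSS fluorescence: 10 s baseline, compound pin-transfer, 110 s agonist read, then EC80 54-4 (4uM final) and 110 s antagonist read.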
Numbers without * were called inactive; ? = inconclusive; nt = no result given.

SMILES	CtBP-E1A inh	TRPV1 potentiator	TRPML1 blocker	D2 PAM	Six1-Eya2 blk	TRPML1 agonist
NC(=O)C(c1ccccc1)c1ncc(C(F)(F)F)cc1Cl (configuration not stated)	0	8	-12	-7	5	-0.1
COc1ccc(C2(c3ccc(OC)cc3)NC(=O)N(CC(=O)Nc3ccc(C(N)=O)cc3)C2=O)cc1	-11	1	-11	2	-2	2.3
COC(=O)Nc1ccccc1C(=O)N1CCN(c2ccc(C)cc2)CC1	7	2	1	-15	-3	-0.9
CCC(C)NC(=O)C(Cc1ccccc1)n1cccc1 (configuration not stated)	3	20	-3	-6	-3	0.0
CCc1cc(C(=O)Cc2ccc(F)cc2)c(O)cc1O	2	-31	2	-17	3	5.2
COc1ccccc1CNS(=O)(=O)CCNCc1ccco1	2	nt	14	-7	-1	-1.0
Cc1cc(NC(=O)CN2C(=O)NC(CCc3ccccc3)C2=O)no1 (configuration not stated)	8	-3	0	-4	2	-0.5
NC(=O)c1cc([N+](=O)[O-])ccc1NCc1ccc(O)cc1	-16	14	-19	-6	-9	1.7
CC(=O)c1ccc(N2Cc3ccccc3C3(CCOCC3)C2=N)cc1	nt	1	0	-10	-10	-0.4
Cc1ccc2nc(SC(C)C(=O)NC3CCCc4ccccc43)[nH]c2c1 (configuration not stated)	-15	18	-11	-11	1	5.0
CCCc1ccc(C2=Nn3c(nnc3C(C)C)SC2)cc1	0	-12	27	-9	-1	1.0
COC(=O)[C@]1(C)N[C@H](CN(C)C(=O)Nc2ccc(OC)cc2)[C@@H]2C(=O)N(Cc3ccccc3)C(=O)[C@@H]21	2	nt	3	2	4	-0.6
CCN(CC)CCNCC1C(=O)O[C@@H]2C[C@@]3(C)CCC[C@H](C)C3=C[C@H]12 (some centres not stated)	-10	-3	17	7	5	-1.3
CCOc1ccc(S(=O)(=O)n2cnc3cc(C)c(C)cc32)cc1	-20	3	7	-12	-10	0.1
Cn1cccc1/C=C1\SC(=S)N(NC(=O)c2cccc(Cl)c2)C1=O	-22	-2	2	-13	?	0.1
Cc1oc(C(=O)O)cc1COc1ccc2c3c(c(=O)oc2c1)CCC3	-4	1	-5	-3	-5	-0.2
C[C@H]1CN([C@@H](C)CO)C(=O)CCCn2cc(nn2)CO[C@@H]1CN(C)S(=O)(=O)c1ccc2c(c1)OCCCO2	-7	nt	13	-3	0	0.3
CCCn1c(NC(=O)c2cccc(S(=O)(=O)N3CCCC3)c2)nc2ccccc21	?	10	27	-17	?	0.5
COc1ccc(S(=O)(=O)N2CCCCC2)cc1NC(=O)CNc1ccccc1C(C)=O	-6	-13	-11	-10	-3	0.8
O=C(Nc1nc(-c2nc3ccccc3s2)cs1)C1CC1	-13	10	5	5	1	-0.3
Cc1cc(OC(=O)Cc2cccc3ccccc23)c([N+](=O)[O-])c(=O)[nH]1	8	9	26	-4	2	-0.1
Cn1nccc1NS(=O)(=O)c1ccc(C(C)(C)C)cc1	4	-8	-17	-2	-1	-0.2
CC1(C(=O)O)CCN1C(=O)c1cccnc1Oc1ccccc1 (configuration not stated)	7	nt	nt	-1	0	-1.0
COc1ccc(NC(=S)N2CCN(C(c3ccccc3)c3ccccc3)CC2)cc1OC	5	17	-6	-3	-11	2.2
OCCC1CN(Cc2ccccc2-c2ccco2)CCN1Cc1ccccc1 (configuration not stated)	-26	-3	16	-17	-6	0.6
COC(=O)C1=C(C(=O)OC)[C@@H]2N(C)c3ccc(OC)cc3[C@@]23C[C@@H](C(=O)OC)N(C(=O)NC2CCCCC2)C3=N1	-15	nt	14	-8	?	0.9
CC(=O)Nc1nnc(SCC(=O)N2CCCc3ccccc32)s1	11	5	-10	-4	4	-0.5
CCOc1ccccc1C1N(c2ccc(F)cc2)C(=O)C2CCCN21 (configuration not stated)	6	-6	?	8	-1	-0.2
Cc1ccccc1N(C(=O)c1ccco1)C(C(=O)NC1CCCC1)c1cccnc1 (configuration not stated)	1	-4	6	-3	-1	-0.1
CN(Cc1ccccc1)C(=O)c1nc[nH]c1C(=O)N1CCc2ccccc2C1	-1	5	-3	-12	3	-0.6
CCOC(=O)C1C2C=CC3(CN(C4CCCC4)C(=O)C13)O2 (configuration not stated)	8	3	-6	-4	9	-0.7
CSCCC(NC(=O)c1ccccc1Br)C(=O)NNC(=O)C1COc2ccccc2O1 (configuration not stated)	6	nt	-3	-2	-1	0.0
O=C(NC1CCCCCC1)C1Cc2ccccc2CN1C(=O)c1ccco1 (configuration not stated)	7	-11	-12	-7	13	0.0
Cc1cc(NC(=O)C(Cl)c2ccccc2)no1 (configuration not stated)	-21	4	30	-29	5	0.4
Cc1c(NC(=O)c2cccnc2C(=O)O)cccc1C(=O)O	-4	2	24	-18	-18	0.4
CCNC(=O)C(C)Oc1ccc(Cl)cc1Cl (configuration not stated)	11	15	-23	1	18	0.4
CCOc1ccc(CSC2=NCCN2)cc1Cl	6	-5	-11	-12	3	1.4
CCOC(=O)C(=CNc1cc(C)ccc1[N+](=O)[O-])C(=O)OCC	nt	-26	11	-11	1	0.7
Cc1ccc(S(=O)(=O)Nc2ccccc2)cc1[N+](=O)[O-]	8	nt	4	-9	-1	1.9
COc1ccc(OC)c(Nc2cc(C)nc3nc(C)nn23)c1	3	?	2	-3	6	0.9
CC(C)OC(=O)N(C)C[C@H]1OCc2cnnn2CCCC(=O)N([C@H](C)CO)C[C@H]1C	-1	nt	42	0	9	1.2
CCOc1ccc(-n2c(SCC(=O)Nc3ccc(OC)cc3OC)nc3c(c2=O)SCC3)cc1	-6	nt	-1	-10	-5	1.3
O=C(O)CCN=Cc1c(O)c2ccccc2oc1=O	-2	-8	-4	-5	0	-0.6
Cc1ccc(S(=O)(=O)N/N=C\c2cc3c(cc2[N+](=O)[O-])OCO3)cc1	0	9	-9	-15	-1	0.3
CC1CCN(C(=O)CSc2nc3c(c(=O)n(C)c(=O)n3C)n2C)CC1	8	2	13	-1	10	-0.2
COc1ccc(S(=O)(=O)N2CCCC2CNC(=O)C(=O)NCc2ccccc2Cl)cc1 (configuration not stated)	-1	-6	4	-1	-8	0.4
CCCCCCCn1c2c(c(=N)c3ccccc31)CCC2	nt	-18	8	5	-12	4.0
Cc1ccc(Nc2[nH]c(=O)c3ccccc3c2C(=O)c2ccccc2)cc1	-2	nt	-11	-1	-4	-0.5
CCCCN(C1CCS(=O)(=O)C1)S(=O)(=O)c1ccc(OC)cc1 (configuration not stated)	7	-4	2	-4	4	1.6
CC(Sc1nc(NCc2ccccc2)nc(N(C)C)n1)C(=O)Nc1ccccc1 (configuration not stated)	9	7	3	-1	-9	1.8
CCCNc1nc(=S)n(-c2ccccc2)c(C)c1C(C)=O	11	?	13	-10	-2	-0.5
CC(C)CCOc1cccc(C2c3c(oc4ccccc4c3=O)C(=O)N2CCCN2CCOCC2)c1 (configuration not stated)	-2	nt	-12	-4	0	0.4
C=CCSc1nc(C)c(CCCC)c(=O)[nH]1	-23	2	-6	0	-16	-0.4
COc1ccc(S(=O)(=O)N2CCOC2CNC(=O)C(=O)NCc2ccco2)cc1 (configuration not stated)	6	17	19	-2	-3	0.8
COc1ccc(CN2C(=O)c3cccnc3C2=O)cc1S(=O)(=O)N1CCOc2ccc(Cl)cc21	-7	1	-12	1	-1	0.4
Cc1cc(C)cc(NC(=O)CSCc2cc(=O)n3ccsc3n2)c1	2	22	-2	-5	-1	0.5
CCCCn1c(N)c(N(CCOC)C(=O)c2c(CC)noc2C)c(=O)[nH]c1=O	nt	-4	1	-8	10	-0.1
O=C(NCc1cccc(Cl)c1)C1CCCN(c2ncnc3c2nc2n3CCCCC2)C1 (configuration not stated)	-5	-8	-8	0	0	1.9
c1ccc(-n2nnc3ccccc32)cc1	3	0	3	-8	-1	-0.9
NS(=O)(=O)c1ccc(O)c(NC(=O)c2ccc([N+](=O)[O-])o2)c1	-7	5	-10	4	0	0.8
Going on with the list.
SMILES	CtBP-E1A inh	TRPV1 potentiator	TRPML1 blocker	D2 PAM	Six1-Eya2 blk	TRPML1 agonist
COc1ccc(OC)c(NS(=O)(=O)c2ccc(-c3coc(C)n3)cc2)c1	-3	1	2	10	5	-0.1
CC(/C=C/c1ccc2c(c1)OCO2)=N/NC(=O)c1ccncc1	nt	10	-7	-20	-3	-0.4
CCOc1ccccc1CN1CCN(Cc2[nH]c3ccccc3c2C)CC1CCO (configuration not stated)	nt	-5	-1	-2	-11	0.8
Cc1ccnc2nc(C(=O)OCC(=O)NC3CCCC(C)C3C)nn12 (configuration not stated)	0	6	-3	13	-16	-0.2
Cc1ccc(-c2nnn(CC(=O)N(CC(=O)NC3CCCCC3)c3ccccc3F)n2)o1	-3	-14	-14	-10	-2	-1.8
c1ccc(CCCCc2ccncc2)cc1	17	nt	-5	-12	-2	0.8
COc1ccccc1C(=O)COC(=O)C(CCSC)NC(=O)COc1ccccc1 (configuration not stated)	0	2	5	-5	-9	1.4
Cc1nn(Cc2ccc(Cl)cc2)c(C)c1NC(=O)CSc1nc2c(c(C(F)(F)F)n1)CCc1ccccc1-2	-7	0	4	0	-6	0.8
COc1cc(OC)cc(C(=O)N2CCN(S(C)(=O)=O)CC2)c1	5	-1	11	-15	?	0.0
Cc1nc(COC(=O)c2ccc(CO)cc2)cs1	3	6	1	9	2	0.0
O=C(CCCCCNC(=O)N1CCn2c1nc1ccccc12)NCc1ccc(F)cc1	5	8	3	-11	-1	-1.3
CCCCP(=O)(CCCC)Cc1ccccc1	16	10	-23	9	-1	0.4

Full records, looked up by structure. Values in the order: CtBP-E1A inh | TRPV1 potentiator | TRPML1 blocker | D2 PAM | Six1-Eya2 blk | TRPML1 agonist
CC(/C=C/c1ccc2c(c1)OCO2)=N/NC(=O)c1ccncc1 in the list: nt | 10 | -7 | -20 | -3 | -0.4
c1ccc(CCCCc2ccncc2)cc1 in the list: 17 | nt | -5 | -12 | -2 | 0.8
Cc1nc(COC(=O)c2ccc(CO)cc2)cs1 in the list: 3 | 6 | 1 | 9 | 2 | 0.0
COc1cc(OC)cc(C(=O)N2CCN(S(C)(=O)=O)CC2)c1 in the list: 5 | -1 | 11 | -15 | ? | 0.0

An excerpt from above in order of their number in Six1-Eya2 blk, highest first.
SMILES | CtBP-E1A inh | TRPML1 blocker | D2 PAM | Six1-Eya2 blk
Cc1cc(OC(=O)Cc2cccc3ccccc23)c([N+](=O)[O-])c(=O)[nH]1 | 8 | 26 | -4 | 2
Cc1ccc(S(=O)(=O)Nc2ccccc2)cc1[N+](=O)[O-] | 8 | 4 | -9 | -1
c1ccc(CCCCc2ccncc2)cc1 | 17 | -5 | -12 | -2
CCC(C)NC(=O)C(Cc1ccccc1)n1cccc1 (configuration not stated) | 3 | -3 | -6 | -3
C=CCSc1nc(C)c(CCCC)c(=O)[nH]1 | -23 | -6 | 0 | -16

Source: PubChem BioAssay (National Center for Advancing Translational Sciences (NCATS))
